# Screens (PubChem BioAssay)
# HSD17B inh = HSD17B dehydrogenase inhibition; Q99714; recombinant HSD17B10, NADH fluorescence kinetic; many of its hits are not listed in these tables; Potency, µM (titrated, usually from 57.1 µM), without a hit: at the highest dose activity change, negative = inhibition, most hits filed as inhibitors; 7.6% of 75,000 active; AID 893; active = well fitted inhibition curve with a large enough effect; inconclusive = small, poorly fitted or top-dose-only effect; inactive = no such curve, though single readings can be large or run the other way;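 also: the protocol describes HADH2 (HSD17B10) and not the HSD17B4 of the title; nearly all actives have a fitted effect of over 70% in size; most hits overshoot -100% by far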
#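 Enzyme plus compound, 15 min room temperature; substrate mix added (NAD+ 1 mM, beta-hydroxybutyryl-CoA 90 uM final); plates read kinetically for NADH fluorescence. HADH2 was His-tagged, E. coli-derived, 20 nM.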
# * marks the source's active call; other numbers are inactive results; u = inconclusive; [ ] = another dose, or the depositor's remark. % is scaled to controls: 0 for no effect and ±100 for the full control effect; potency is read from the fitted curve at half-maximal effect.
Compound,HSD17B inh
Cc1cccc(NC(=O)C2CCCN(S(=O)(=O)c3cccc4cccnc34)C2)c1 (stereo unspecified),0%
FC(F)(F)c1cc(-c2ccco2)nc(N2CCOCC2)n1,-7%
O=C1CCN(Cc2nnnn2CC2CCCO2)c2ccccc2N1 (stereo unspecified),2%
COc1c(S(=O)(=O)n2nc(C)cc2C)ccc(Cl)c1Cl,-5%
CCN(CC)C(=O)N1CCN(S(=O)(=O)c2ccc(C)c(C)c2)CC1,4%
CC(=O)c1c(C)[nH]c(C(=O)N2CCN(C(=O)c3ccco3)CC2)c1C,11%
CCc1cccc(CC)c1N(COC)C(=O)Cn1c(CO)nc2ccccc21,3%
CCCCn1c(CN2C(=O)c3ccccc3C2=O)nc2ccccc2c1=O,-13%
Nn1c(-c2ccco2)n[nH]c1=S,u
CC(O)CCC(=O)NCCNC(=O)CCC(C)O (stereo unspecified),5%

# Continued; the last 2 above are carried over.
Compound,HSD17B inh
Nn1c(-c2ccco2)n[nH]c1=S,u
CC(O)CCC(=O)NCCNC(=O)CCC(C)O (stereo unspecified),5%
O=C(NCC1CCCO1)C1C2C=CC3(CN(Cc4cccs4)C(=O)C13)O2 (stereo unspecified),2%
CCN1CCN(CCCNC(=O)c2cc3sccc3n2CC)CC1,3%
CCc1[nH]nc2c1C(c1cccc(OC(=O)N3CCOCC3)c1)C(C#N)=C(N)O2 (stereo unspecified),4%
Cc1c(C(=O)NCCN2CCOCC2)oc2ccccc12,12%
CCc1ccc(NC(=O)CCN2C(=O)c3cccnc3C2=O)cc1,-5%
CC1CCN(CCNC(=O)CN(C)S(=O)(=O)c2cccc3nsnc23)CC1,5%
O=S(=O)(NC1c2cccc3cccc(c23)C1N1CCNCC1)c1ccccc1 (stereo unspecified),-6%
Cc1ccc(N(C(=O)c2ccc(Br)o2)C2C=CS(=O)(=O)C2)cc1 (stereo unspecified),6%
O=[N+]([O-])c1ccc([C@@H](Nc2ccccc2)c2ccc3cccnc3c2O)cc1,-6%[11.4 µM]
COc1ccc(NC(=O)C2CC(=O)N(C)C(=Nc3ccc4c(c3)OCO4)S2)cc1 (stereo unspecified),-8%
COc1ccccc1NC(=O)CSc1nc2sc(C)c(C)c2c(=O)n1Cc1ccco1,-12%
O=C(Cn1cnc2c(nnn2Cc2ccc(F)cc2)c1=O)NCc1ccc2c(c1)OCO2,-15%
O=C(Cn1nnc2c(cnn2-c2ccc(F)cc2)c1=O)c1ccccc1F,0%
CCCn1c(SCC(=O)OCc2ccccc2)nc2c1c(=O)n(C)c(=O)n2C,11%
CC(=O)Nc1ccc(NC(=O)CSC2=NCCS2)cc1,7%
O=C(NCCN1CCN(c2cccc(Cl)c2)CC1)c1cccn2c(=O)c3ccccc3nc12,5%
O=C1CCCC/C1=C\Nc1ccc(Cl)cn1,-11%
Cc1ccc(-c2nnc(SCC(=O)N3CC(C)CC(C)C3)o2)cc1C (stereo unspecified),-7%
Cc1ccc(C)c(OCCCN2CCCC2)c1,5%
COc1cccc(Cn2c(=O)c(-c3ccc(F)c(F)c3)nc3cncnc32)c1,-14%
COc1ccc(C(=O)Cn2nnc(-c3ccccc3F)n2)cc1,-5%
Cc1cnc(NC(=O)CSc2nnc(CNc3ccc(F)cc3)n2CC2CCCO2)s1 (stereo unspecified),9%
c1ccc(Cn2c(NCc3ccco3)nc3ccccc32)cc1,2%
CCOC(=O)c1ccc(OC(=O)CCCCCN=C(N)N)cc1,9%
COc1cc(CC(=O)OCC(=O)Nc2ccc(S(=O)(=O)N3CCCC3)cc2)cc(OC)c1OC,2%
Cc1ccc(Cn2c(CN(C)Cc3ccccc3)nc3c2c(=O)n(C)c(=O)n3C)cc1,-18%
Oc1ccc(CN2CCN(Cc3ccccc3)CC2)c2cccnc12,9%
NC(=S)N/N=C\c1c[nH]c2ccccc12,0%[11.4 µM]
COc1ccc(C2=NOC(C(=O)Nc3ccc(C)cc3)C2)cc1OC (stereo unspecified),0%
Cc1ccc(CC2S/C(=C(/C#N)C(=O)NCc3ccco3)N(c3ccccc3)C2=O)cc1 (stereo unspecified),0%

# Grouped by structure, the entries above containing an aryl thioether with sulfur outside any ring
Compound,HSD17B inh
COc1ccccc1NC(=O)CSc1nc2sc(C)c(C)c2c(=O)n1Cc1ccco1,-12%
CCCn1c(SCC(=O)OCc2ccccc2)nc2c1c(=O)n(C)c(=O)n2C,11%
Cc1ccc(-c2nnc(SCC(=O)N3CC(C)CC(C)C3)o2)cc1C (stereo unspecified),-7%
Cc1cnc(NC(=O)CSc2nnc(CNc3ccc(F)cc3)n2CC2CCCO2)s1 (stereo unspecified),9%

# Going on with the list.
Compound,HSD17B inh
O=C(NCC1CCCO1)C1CCN(S(=O)(=O)c2cccc3nonc23)CC1 (stereo unspecified),-4%
COCCNc1nc(C)nc2c1nc(-c1ccccc1)n2CCN1CCCCC1,25µM*
Clc1ccc(OCc2nn3c(-c4ccco4)nnc3s2)cc1,-7%
COc1ccc(NC(=O)C(c2ccc(C)cc2)N(C)C(=O)c2cnccn2)cc1 (stereo unspecified),2%
Cc1c(NS(=O)(=O)c2ccc(Br)s2)c(=O)n(-c2ccccc2)n1C,15%
CCNS(=O)(=O)c1ccc(NC(=O)c2ccccc2OCC)cc1,-8%
COC(=O)C(C#N)C(=C1C(=O)CC(C)(C)CC1=O)c1ccc(O)cc1 (stereo unspecified),1%
O=C(CC(SCCO)c1ccc2c(c1)OCO2)c1cccs1 (stereo unspecified),9%
COc1ccc(CNc2cc(-c3ccccc3OC)ncn2)c(OC)c1,u
CCOCC(=O)Nc1sc2c(c1C(=O)OCC)CCCC2,u

# Three entries drawn at random from those above, as already listed:
Compound,HSD17B inh
COc1ccc(CNc2cc(-c3ccccc3OC)ncn2)c(OC)c1,u
Cc1c(NS(=O)(=O)c2ccc(Br)s2)c(=O)n(-c2ccccc2)n1C,15%
O=C(CC(SCCO)c1ccc2c(c1)OCO2)c1cccs1 (stereo unspecified),9%

# Continued.
Compound,HSD17B inh
Cc1c(NC(=O)CN2C(=O)C3C4C=CC(C4)C3C2=O)c(=O)n(-c2ccccc2)n1C (stereo unspecified),2%
OC1C=C2CCN3Cc4cc5c(cc4C(C1O)C23)OCO5 (stereo unspecified),-6%
O=C1NC2(CCCCC2)Oc2ccccc21,14%
Cc1cc(C)nc(SCC(=O)N2CCCCC2)n1,-1%
CCN1CCN(C(c2cccs2)C(C)NC(=O)c2ccco2)CC1 (stereo unspecified),7%
C[C@H](Cc1ccc(O)c(O)c1)[C@@H](C)Cc1ccc(O)c(O)c1,2.5µM*
O=C(CNC(=O)c1ccco1)NCC(=O)OCc1cccc(C(=O)Oc2ccccc2)c1,6%
CCS(=O)(=O)N1CCCC(C(=O)NCc2cccc(OC)c2)C1 (stereo unspecified),5%
Cc1ccc(CNc2oc(-c3ccco3)nc2C#N)cc1,25µM*
CN1CCN(c2ncnc3ccc(-c4cccnc4)cc23)CC1,12%
CCCn1c(SCC(=O)c2ccc3c(c2)OCCO3)nnc1-c1ccco1,u
O=C(CCC(=O)c1cccs1)NCc1ccccc1,10%
Cc1cccc2cc3c(N)c(C(=O)N4CCOCC4)sc3nc12,-8%
CCN(CC)CCCN1C(=O)c2oc3ccccc3c(=O)c2C1c1cccc(OC)c1OC (stereo unspecified),4%
O=C(c1ccc2nc(N3CCOCC3)sc2c1)N1CCC2(CC1)OCCO2,-8%
CCCCCCC#CC1C=CC(Oc2ccc(C=O)cc2)C(CO)O1 (stereo unspecified),-13%[11.4 µM]
CCN(c1ccccc1)c1cc(C)nc2nc(C)nn12,2%
CCC(C)NC(=O)CS(=O)Cc1nc(-c2cccc(C)c2)oc1C (stereo unspecified),-1%
O=C(NCCCc1ccccc1)C1CC(=O)N(c2ccc3c(c2)OCCO3)C1 (stereo unspecified),2%
CCOC(=O)CSc1nnc(-c2ccoc2C)n1-c1ccc(OCC)cc1,-1%
CCOC(=O)c1c(C)n(C)c2ccc(O)c(CN(C)C)c12,-6%
CC1CCN(C(=O)c2ccc(N(C)S(C)(=O)=O)cc2)CC1,3%
O=C(Nc1ccccn1)C1(c2ccccc2)CCCC1,1%
CCOC12NC(=O)CC(=O)N1C(c1ccccc1)=CS2 (stereo unspecified),u
Cc1ccccc1CN1C(=O)C2(OCCCO2)c2ccccc21,-11%
C=C(C)COc1ccc(-c2nc(N)ncc2Oc2ccccc2OC)c(O)c1,-20%
OCCN1CCN(CC(O)COc2ccc3c(c2)OCO3)CC1 (stereo unspecified),6%
N#CCSc1nnc(-c2ccccc2)c(-c2ccccc2)n1,1%
O=S(=O)(c1ccccc1)N1CCC[C@@]2(CCN(c3ccncc3)C2)C1,11%
Nc1c(Nc2ccccc2)c2ccccc2oc1=O,-25%
Cc1cc(NC(=O)COC(=O)C(Nc2ccc(C(F)(F)F)cc2Cl)C(C)C)no1 (stereo unspecified),-5%
COc1cccc(C(=O)OCC(=O)Nc2ccccc2N2CCOCC2)c1,1%
O=C(NCc1ccccc1)c1ccc(-c2ccccc2F)o1,32µM*
Fc1cccc(-c2cc3nc4c(c(N5CCC6(CC5)OCCO6)n3n2)CCCC4)c1,u
COC(=O)c1ccc(CSc2ncn[nH]2)o1,3%
Cc1cc(=O)oc2cc(OCC(O)CN3CCN(c4ccccc4)CC3)ccc12 (stereo unspecified),32µM*
CN1C(=S)SC(/[N+]([O-])=C\c2cccs2)C1(C)C (stereo unspecified),-2%
COC(=O)CN(C)C1CC(=O)N(c2ccc(Cl)cc2)C1=O (stereo unspecified),-12%
CCn1c(COc2ccccc2C)nnc1SCC(=O)CC(=O)Nc1ccccc1OC,-18%
COc1ccc(CNC(=O)C2COc3ccccc3O2)cc1 (stereo unspecified),10%
FC(F)(F)c1cc(CN2CC3(CCNCC3)C2)cc(C(F)(F)F)c1,1%
CC(=O)N1CCN(CCN=CC2=C(O)CC(c3ccco3)CC2=O)CC1 (stereo unspecified),1%
CCC(C)NC(=O)CSc1nnc(-c2ccncc2)n1-c1ccc(OC)cc1 (stereo unspecified),-3%
CCOC(=O)c1cccc(NC(=O)CS(=O)(=O)Cc2nc(-c3cccc(OC)c3)oc2C)c1,-5%
CN(c1ccc(C(=O)NCCSC(C)(C)C)cc1)S(C)(=O)=O,-4%
O=C(Cc1ccc(-n2cccc2)cc1)N1CCc2ccccc21,-9%
COc1cccc(NC(=O)N(CCCN2CCOCC2)C(C)c2cc3cccc(OC)c3o2)c1 (stereo unspecified),12%
Cc1noc(C)c1COc1ccc(C(=O)OCc2nnc(-c3ccc(Cl)cc3)o2)cc1,-2%
CC(C)=CCc1c2c(c3occ(-c4ccc(O)cc4)c(=O)c3c1O)C=CC(C)(C)O2,-9%
COC(=O)c1[nH]c(C)c(/C(O)=C2\C(=O)C(=O)N(CCCN3CCOCC3)C2c2ccccn2)c1C (stereo unspecified),2%

# (listing goes on)
Compound,HSD17B inh
COc1ccc(CCNC(=O)CSc2nnnn2-c2ccccc2OC)cc1OC,2%
CCn1c(SCC(=O)N(C(C)C)C(C)C)nnc1-c1cc2ccccc2cc1O,5%
CC(Cc1ccccc1)C(=O)Nc1ccccc1 (stereo unspecified),4%
O=C(CCN1C(=O)c2ccccc2C1=O)N1CCN(C(=O)c2ccccc2)CC1,-10%
COC(=O)c1ccc(Oc2nc(N3CCCCC3)nc(N3CCOCC3)n2)cc1,-4%
O=C(O)CN1CCNCC1,9%
CCOC(=O)c1ccccc1NC(=O)c1cc2sccc2n1C,25µM*
O=C1C2CCCN2C(c2ccccc2F)N1c1ccc(F)cc1 (stereo unspecified),12%
COc1ccc(-n2c(=S)[nH]c3cc(C(=O)NCc4ccco4)ccc3c2=O)cc1OC,7%
COc1cccc(OCc2nc3ncc(Br)cc3[nH]2)c1,-2%
Cn1c(SCC(=O)c2cc3ccccc3o2)nnc1-c1ccccc1,-7%
CC(C)Oc1ccc(N2CC(C(=O)Nc3ccccc3F)CC2=O)cc1 (stereo unspecified),4%
O=C(c1cccnc1)N1CCN(C(=O)c2cccs2)CC1,3%
Cc1ccc(-c2nc(CS(=O)CC(=O)NCc3ccc(Cl)cc3)c(C)o2)cc1 (stereo unspecified),-14%
CSc1ncc(Cl)c(C(=O)C(C#N)c2nc3c(C)cc(C)cc3c(=O)[nH]2)n1 (stereo unspecified),u
CCn1nc(NC(=O)c2cccnc2)c2cc3cccc(C)c3nc21,0%
COc1ccc(-c2nnn(CC(=O)N(CCO)C(C(=O)NC3CCCC3)c3ccc(F)cc3)n2)cc1 (stereo unspecified),5%
CC(Nc1n[nH]c(=S)[nH]c1=O)C(=O)OCc1ccccc1 (stereo unspecified),-12%
CCOC(=O)N1CCN(S(=O)(=O)c2ccc3c(c2)CCN3C(=O)C2CCC2)CC1,9%
COC(=O)c1ccccc1NC(=O)c1nc2nc(C)cc(C)n2n1,-3%

# Some of the entries so far, field by field:
CC(Nc1n[nH]c(=S)[nH]c1=O)C(=O)OCc1ccccc1 (stereo unspecified)
  HSD17B inh: -12%

CCOC(=O)N1CCN(S(=O)(=O)c2ccc3c(c2)CCN3C(=O)C2CCC2)CC1
  HSD17B inh: 9%

COC(=O)c1ccccc1NC(=O)c1nc2nc(C)cc(C)n2n1
  HSD17B inh: -3%

# Only part of the results is shown (hit frequency here may not be typical).
